Screens (PubChem)
VDR inhibitor: Inhibitors of the vitamin D receptor (VDR): qHTS; Vitamin D3 receptor (Homo sapiens), P11473; VDR-SRC2-3 peptide fluorescence polarization, 2 h; Potency, µM, for inactives: max response, negative = inhibition, hits mostly inhibitors; 400,000 compounds, 0.93% hits; active means well fitted inhibition curve with a large enough effect; inconclusive means small, poorly fitted or top-dose-only effect, or another doubt; inactive means no such curve, though single readings can be large or run the other way; further: series mostly up to about 120 µM
Target sequence (P11473 whole entry, looked up): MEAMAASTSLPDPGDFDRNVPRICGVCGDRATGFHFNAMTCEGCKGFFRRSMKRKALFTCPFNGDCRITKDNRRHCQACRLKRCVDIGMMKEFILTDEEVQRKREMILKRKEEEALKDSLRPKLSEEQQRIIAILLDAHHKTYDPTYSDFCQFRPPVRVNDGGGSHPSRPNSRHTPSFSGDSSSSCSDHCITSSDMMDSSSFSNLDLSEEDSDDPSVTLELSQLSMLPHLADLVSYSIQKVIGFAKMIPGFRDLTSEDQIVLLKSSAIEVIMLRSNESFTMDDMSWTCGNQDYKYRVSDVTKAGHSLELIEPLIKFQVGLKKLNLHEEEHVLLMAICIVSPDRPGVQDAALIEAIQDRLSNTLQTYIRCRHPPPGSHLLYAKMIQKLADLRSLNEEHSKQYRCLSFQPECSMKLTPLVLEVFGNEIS
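Compounds are added to VDR with labelled SRC2-3 coactivator peptide and held 2 h at room temperature. Inhibition of the VDR–peptide interaction is then read as a change in fluorescence polarization.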
* hit, by the source's call; ? = inconclusive; & = joins results of further samples; [ ] = another dose, or the depositor's remark. On the % scale 0 is the no-effect control and ±100 the full control effect; potency means the concentration at half of the fitted maximal effect. A portion of the library; count on the stated rates, not on these rows.

SMILES | VDR inhibitor
O=C(Oc1cccc([N+](=O)[O-])c1)N1CCCCC1 | -2%
COc1ccc(CNC(=O)C(C)OC(=O)CCN2C(=O)C3CC=CCC3C2=O)cc1 (configuration not stated) | -19%
COc1ccccc1CN1CCNC(=O)C1CC(=O)NCC1CCOCC1 (configuration not stated) | 6%
N#CCc1ccc(OC(=O)c2cccnc2Cl)cc1 | -5%
COc1ccc(-n2c(=O)[nH]cc(C(=O)N3CCCc4ccccc43)c2=O)cc1 | -4%
Cc1sc2nc(C)n(/N=C/N(C)C)c(=O)c2c1C | 7%
O=C(Cn1ncc2c([nH]c3ccccc32)c1=O)Nc1cccc(C(F)(F)F)c1 | 11%
CCOC(=O)C1(CCOC)CCN(Cc2nc(C(C)C)cs2)CC1 | -9%
CC(C)(C)OC(=O)NCC1CCC(C(=O)NC[C@H](CC(=O)O)c2ccc(Cl)cc2)CC1 (some centres not stated) | 31%[activator]
COC(=O)c1ccc(C(=O)N2CCCC(Nc3ccc(C(C)C)cc3)C2)nc1 (configuration not stated) | -7%
Cc1sc(NC(=O)CSc2nnc3scc(-c4ccccc4)n23)c(C#N)c1C | 2%
CCc1ccc(S(=O)(=O)/N=C2\C=C(Nc3ccc(C(=O)O)cc3)C(=O)c3ccccc32)cc1 | 4%
Cc1cc(-n2c(C)cc(C(=O)CN3C(=O)NC4(CCCCCC4)C3=O)c2C)no1 | 7%
O=C(Nc1cccc2ccccc12)/C(=C/c1ccc([N+](=O)[O-])cc1)NC(=O)c1ccccc1 | -1%
COc1ccc(N(C)S(=O)(=O)c2cccc(C(=O)OCC(=O)N3CC(C)CC(C)C3)c2)cc1 (configuration not stated) | -4%
C=CCn1c(C)cc(C(=O)Cn2c(C(C)O)nc3ccccc32)c1C (configuration not stated) | 3%
NC(N)=N/N=C/c1ccc2cccc(OCc3ccccc3)c2n1 | -17%
CCc1ccc(NC(=O)CN(C)S(=O)(=O)c2ccc3[nH]c(=O)oc3c2)cc1 | -19%
O=C(Nc1ccc(S(=O)(=O)N2CCCCC2)cc1)C1CCCN(C(=O)c2ccc(Cl)cc2)C1 (configuration not stated) | 3%
COc1cccc(NC(=O)C2CCCN(S(=O)(=O)c3c(C)[nH]c(=O)[nH]c3=O)C2)c1 (configuration not stated) | -10%
Cn1c(CN2CCCC2)nc2cc(NC(=O)C3CCCCC3)ccc21 | -1%
O=C(CN1CCCCCCC1)N/N=C/c1ccc(F)cc1F | -21%
CCC(CC)C(=O)Nc1ccccc1SCc1cc(=O)c2cccc(C)c2[nH]1 | 15%
CCC(C)(C(=O)Nc1c(C)cccc1C)N(C)C(=O)c1ccc2ccccc2n1 (configuration not stated) | -7%
CCCCNc1nc2ccccc2[nH]1 | 3%
CCCN(C(=O)c1cc2c(s1)-c1c(C)cccc1OC2)c1ccc(OCC)cc1 | -21%
c1ccc(-n2c3ccccc3c3ccccc32)cc1 | 7%
Cc1nc2c(c(C)c1CCC(=O)Nc1cccc(C(F)(F)F)c1)c(=O)n(C)c(=O)n2C | -9%
COCCN1C(=O)N[C@@H](c2ccc(Br)cc2)C(C(=O)OC)=C1C | -2%
O=C(COc1ccc(F)cc1)Nc1cc(S(=O)(=O)N2CCCCC2)ccc1N1CCCCC1 | 25%
CN(C)CCCNC(=O)c1ccc(Cl)c(S(=O)(=O)N(C)c2ccccc2)c1 | 5%
CCc1nn2cc(C(=O)c3cc(Cl)ccc3O)cnc2c1-c1ccc(F)cc1 | 4%
CN(CC(=O)Nc1ccccc1C(=O)NC1CC1)Cc1cccs1 | -13%
Cc1ccc(S(=O)(=O)N(C)c2nc3ccccc3n3c(C(C)C)nnc23)cc1 | 24%
O=[N+]([O-])c1ccc(-c2csc(N3CCCCCC3)n2)cc1 | -15%
CCOc1ccc(C(=O)NCc2ccccn2)cc1 | -2%
O=C(NCCCN1CCCC1=O)C(=O)Nc1cccc(F)c1 | 4%
Cc1cccc(NC(=O)C2CC(=O)n3ncnc3N2)c1 (configuration not stated) | 17%
CCCNS(=O)(=O)c1ccc(OCC(=O)NCc2ccc3c(c2)OCO3)cc1 | 1%
COc1ccc(C(=O)N/C(=C\c2ccco2)C(=O)NCc2ccco2)cc1 | -2%
CN(Cc1cccs1)CC(O)COCc1ccco1 (configuration not stated) | -8%
COc1ccc(CC(=O)O/N=C(\N)c2ccc(OC)cc2)cc1 | 3%
COc1cc(CC(=O)Nc2sc3c(c2C(N)=O)CCCC3)cc(OC)c1OC | 5%
Cc1ccc(NC(=O)Cn2c(=O)oc3cc(S(=O)(=O)N4CCC(C)CC4)ccc32)cc1Cl | -2%
C=CCn1c(SCC(=O)NC(=O)c2cccc([N+](=O)[O-])c2)nnc1-c1ccccc1F | -21%
O=C(CCN1CCCCCC1)Nc1ccc2c(c1)OCCO2 | -13%
CC(C)(CO)NS(=O)(=O)c1ccc2c(c1)C(=O)c1cc(S(=O)(=O)NC(C)(C)CO)ccc1-2 | 22%
Cc1cnc(NC(=O)C2CCC(C(C)(C)C)CC2)s1 (configuration not stated) | 18%
O=C(Nc1ccccc1C(=O)OCc1cc(=O)n2c3c(sc2n1)CCCC3)c1cccc(Cl)c1 | 6%
COc1ccccc1NC(=O)C1C2C=CC(C2)C1C(=O)NCc1cccnc1 (configuration not stated) | -11%
c1ccc2sc(Cc3nnc4n3CCCCC4)nc2c1 | 3%
Cc1ccc(-c2c(C(=O)NCCc3ccc(Cl)cc3)oc(=O)c3ccccc23)cc1 | -11%
Cc1[nH]c(-c2ccc(F)cc2)cc1C(=O)N1CCN(c2ccccc2F)CC1 | -17%
CCc1nnc2n1N=C(c1ccc(-c3cc(Cl)ccc3Cl)o1)CS2 | 11%
CCOC(=O)c1ccc(N2C=C(C(=O)OC)C(c3ccc(OC)c(O)c3)C(C(=O)OC)=C2)cc1 | 1%
COC(=O)c1cc(NC(=S)Nc2cc(Cl)cc(Cl)c2)cc(C(=O)OC)c1 | 0%
CCOC(=O)N1CCN(C(=O)c2ccc(N(C)S(C)(=O)=O)cc2)CC1 | 11%
C=COC(=O)CSc1nc(-c2cccs2)ccc1C#N | -7%
O=C(NCCc1ccccc1Cl)c1ccc2c(c1)nc1n2CCOC1 | 16%
Cc1ccc(-n2nc3ccc(NC(=O)C(C)C)cc3n2)cc1 | -13%

Continuation.
SMILES | VDR inhibitor
CCOC(=O)c1cn2nc(Oc3ccc(C)cc3)ccc2n1 | -13%
COc1ccc2oc(=O)cc(CN3CCN(C(=O)c4ccccc4Br)CC3)c2c1 | 15%
O=C(O)c1ccc(/C=N/Nc2nnnn2-c2ccccc2)cc1 | 3%
O=C(Cn1cc(C(F)(F)F)cc(Cl)c1=O)NCC1COc2ccccc2O1 (configuration not stated) | 11%
CCC(=O)N1c2ccccc2-c2nnc(SC)nc2OC1c1ccc(OC)c(OC)c1 (configuration not stated) | -11%
Nc1nc(NCCO)nc(NC2CCCCC2)c1[N+](=O)[O-] | 9%
O=C(O)Cc1sc(NCCc2ccccc2)nc1-c1ccc(F)cc1 | -5%
Oc1ccc(N=Nc2n[nH]c(-c3ccc(Cl)cc3)n2)cc1 | 3%
O=S(=O)(c1ccc(Br)cc1)N1CCN(Cc2ccco2)CC1 | -4%
COc1cc2c(cc1OC)n(Cc1cccc(C(F)(F)F)c1)c(=O)n1nc(-c3ccccc3)nc21 | 7%
CC(Oc1ccc2c(-c3ccccc3)cc(=O)oc2c1)C(=O)N1CCOCC1 (configuration not stated) | 6%
Cc1cccc(CN2CCN(Cc3nc4c(s3)CCCC4)CC2CCO)n1 (configuration not stated) | 7%
Cc1ccc(N2CC(NC(=O)c3cccs3)CC2=O)cc1C (configuration not stated) | 5%
Cc1ccc(CN2CCS(=O)(=O)CC2)o1 | 29%
COc1ccc(CCNC(=O)C(=O)NCC2CCNCC2)cc1OC | -2%
NN1C(=O)c2cccc3c(C(=O)O)ccc(c23)C1=O | -21%
Cc1ccc2c(C)c(C(=O)Nc3c(C)n(C)n(-c4ccccc4)c3=O)oc2c1 | 5%
CCn1cc(C(=O)O)c(=O)c2cc(F)c(N3CCN(C(=S)NC(=O)c4ccc(Br)cc4)CC3)cc21 | 10%
CC(=O)N1CCc2cc(S(=O)(=O)NC(Cc3ccccc3)C(=O)Nc3cc(C)ccn3)ccc21 (configuration not stated) | 0%
COc1ccc(CCC(C)NC(=O)Cc2ccc(OC)c(OC)c2)c(OC)c1 (configuration not stated) | ?
NC(=O)CC(NC(=O)c1ccc(Br)cc1)c1ccc(N2CCC(Cc3ccccc3)CC2)c([N+](=O)[O-])c1 (configuration not stated) | -7%
COc1cccc(CNC(=O)COc2ccc(C(=O)c3ccccc3)cc2)c1 | -3%
O=C(O)C1CCN(c2ccccc2[N+](=O)[O-])CC1 | 2%
COc1ccc(Br)c(/C=N/NC(=O)COc2ccc(-c3ccccc3)cc2)c1 | -1%
C=CCSc1ccccc1C(=O)Nc1ncn[nH]1 | -9%
O=C(NC1CCCc2ccccc21)C1CCN(S(=O)(=O)c2ccccc2F)CC1 (configuration not stated) | -13%
COCCn1c(N)c(NCc2ccccc2)c(=O)[nH]c1=O | 14%
CCCCc1ccc(N=N/C(C(=O)Nc2ccccc2OC)=C(/C)O)cc1 | -6%
O=C(CC1OC(=O)c2ccccc21)Nc1cc(Cl)ccc1N1CCCC1 (configuration not stated) | 1%
CCCc1ccc2oc(C(=O)N3CCNC(=O)C3CC(=O)OC)c(C)c2c1 (configuration not stated) | 4%
CCNC(=O)C(=O)Nc1ccc2c(c1)N(S(=O)(=O)c1cccs1)CCC2 | -7%
COc1cccc(NC(=O)c2cnn(-c3ccccc3)c2-n2cccc2)c1 | 0%
CC(OC(=O)C1CCCO1)C(=O)NC1CCCC1 (configuration not stated) | 3%
CNCCCC12CCC(c3ccccc31)c1ccccc12 | -4%&-15%&-8%&-20%&0%&-2%
COC(=O)c1ccccc1NC(=O)CCCn1c(=O)c2cccn2c2cccnc21 | 15%
O=C(O)c1ccccc1Sc1c([N+](=O)[O-])cc(C(F)(F)F)cc1[N+](=O)[O-] | -2%
FC(c1nc2ccccc2[nH]1)C(F)(F)F (configuration not stated) | -24%
CN(C)c1ccc(C2N(C(=O)N3CCOCC3)CCN2S(=O)(=O)c2ccccc2)cc1 (configuration not stated) | 18%
Cc1ccc(-n2nc(CO)c(C(=O)NCCc3ccccc3)n2)cc1C | 0%
CC(=O)N1CCN(c2ccc(NC(=O)/C=C/c3ccccc3)cc2)CC1 | -13%

Continued; the last two above are carried over.
SMILES | VDR inhibitor
Cc1ccc(-n2nc(CO)c(C(=O)NCCc3ccccc3)n2)cc1C | 0%
CC(=O)N1CCN(c2ccc(NC(=O)/C=C/c3ccccc3)cc2)CC1 | -13%
O=C(Cc1csc(NC(=O)c2ccc(F)cc2)n1)NO | 0%
COC(=O)c1cc2c(ccn2-c2ccc(F)cc2)n1CC(=O)N1CCN(C(=O)c2ccco2)CC1 | 2%
O=C(CSc1nnnn1-c1ccccc1)NCc1cccs1 | 21%
O=C(CC(c1ccccc1)c1ccco1)Nc1nccs1 (configuration not stated) | -16%
COc1ccc(C2N(C(=O)N3CCOCC3)CCN2S(=O)(=O)c2ccc(C)cc2)cc1 (configuration not stated) | -4%
COC(=O)CNC(=O)C(C)(C)Oc1ccc(Cl)cc1 | 9%
Cn1nc(C(=O)NCC(=O)Nc2ccc(F)c(F)c2F)c2ccccc2c1=O | 10%
O=C(NCc1ccc2c(c1)OCO2)C1CC(=O)N(CCc2ccc(Cl)cc2)C1 (configuration not stated) | -13%
CCC1(C)Cc2c(sc3nnn(Cc4ccccc4Cl)c(=O)c23)CO1 (configuration not stated) | 10%
OC(CNCCc1ccc(Cl)cc1)COc1ccc2ccccc2c1 (configuration not stated) | 1%
CC(C)C(=O)Nc1cccc(NC(=S)NC(=O)c2ccc(Cl)cc2)c1 | -3%
COc1ccc(CC(=O)N/N=C/C=C/c2ccc3c(c2)OCO3)cc1OC | 3%
CCN(CC)CCn1c(N)c(S(=O)(=O)c2ccccc2)c2nc3ccccc3nc21 | -19%
Cc1cccc2cc(COC(=O)C3CCCO3)c(=O)[nH]c12 (configuration not stated) | 7%
COC(=O)c1c(NC(=O)c2ccc(C)cc2)sc(Cc2ccccc2)c1C | -8%
CCCCOc1ccc(C2C(C(=O)c3cccs3)=C(O)C(=O)N2CCN2CCOCC2)cc1 (configuration not stated) | -10%
COc1ccc(C(=O)N/C(=C\c2ccccc2)C(=O)Nc2cccc(C(=O)O)c2)cc1 | -5%
COc1ccc(CNc2ncnc3c2nnn3C)cc1 | 1%
COCCCn1c(=S)[nH]c2ncccc2c1=O | -7%
CCOC(=O)C1=C(C)NC(=O)NC1c1ccc(OCC(=O)N2CCCCC2)cc1 (configuration not stated) | -20%
O=C(C1CCC(N2C(=O)C3CC=CCC3C2=O)CC1)N1CCCCC1 (configuration not stated) | 0%

6 entries from above, arranged by heavy-atom count, ascending.
SMILES | VDR inhibitor
COC(=O)CNC(=O)C(C)(C)Oc1ccc(Cl)cc1 | 9%
O=C(CSc1nnnn1-c1ccccc1)NCc1cccs1 | 21%
CCC1(C)Cc2c(sc3nnn(Cc4ccccc4Cl)c(=O)c23)CO1 (configuration not stated) | 10%
O=C(NCc1ccc2c(c1)OCO2)C1CC(=O)N(CCc2ccc(Cl)cc2)C1 (configuration not stated) | -13%
CCOC(=O)C1=C(C)NC(=O)NC1c1ccc(OCC(=O)N2CCCCC2)cc1 (configuration not stated) | -20%
COC(=O)c1cc2c(ccn2-c2ccc(F)cc2)n1CC(=O)N1CCN(C(=O)c2ccco2)CC1 | 2%
